Screens deposited in PubChem BioAssay by Fisher Drug Discovery Resource Center.
NPYLR7 ag = mosquito NPYLR7 agonism. HEK293T NPYLR7/Galpha15, GCaMP6s calcium fluorescence. activation, % at 10 µM. 270,000 tested, 0.15% active. AID 1259423; in the data active = activation above about 40%;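 also: 0% = vehicle and 100% = reference agonist at the receptor; some compounds past the cut are filed as inactive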
NPYLR7 ag max-min = also measured in NPYLR7 ag; calls as there; activation, %; measured here: Max-Min RFU normalised activation; some inactives read as strong as hits;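 span of the calcium signal over five minutes; 0% = vehicle and 100% = native peptide agonist; compound fluorescence can raise it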
* hit, by the source's call; & = joins results of further samples.

SMILES	NPYLR7 ag	NPYLR7 ag max-min
O=C(NCC1CCCO1)c1nn(Cc2ccc(OC(F)F)cc2)c2ccccc12 (stereo not given)	-2	13
COc1ccccc1C1SCC(=O)N(CC(=O)NCc2ccco2)c2c1c(C(C)(C)C)nn2-c1ccccc1Cl (stereo not given)	17	5
COc1c(C)cc(C(=O)C2CCCN(C3CCCC3)C2)cc1C (stereo not given)	2	-1
N#CC(C#N)=Cc1ccc2ncccc2c1	7	5
CC(Cc1ccc(Cl)cc1)N(C)Cc1nncn1C (stereo not given)	6	4
CCOC(=O)[C@H]1CN(C(=O)c2ccno2)[C@]2(C)C(=O)N(C)c3ccccc3[C@H]12	17	28
C[C@]12CC[C@H](O)CC1=CCC1C2CC[C@]2(C)C(=O)CC[C@@H]12 (stereo not given in full)	-5	-13
COc1cc(OC)c(C=NNP(=S)(c2ccccc2)c2ccccc2)c(OC)c1	-2	-4
CCCCOP(=O)(CC#N)OCCCC	10	8
CN1C(=O)NC(=O)/C(=C/c2cccc(OCC(=O)O)c2)C1=O	-3	-6
COCCN(CC(=O)Nc1nc(CC(=O)N2CCN(C/C=C/c3ccccc3)CC2)cs1)C(=O)c1ccco1	-6	1
NC(Cc1cc(O)c(O)cc1O)C(=O)O (stereo not given)	-6	4
NC(=O)c1ccc(NC(=O)c2nn(Cc3ccc(S(=O)(=O)N4CCOCC4)cc3)c3ccccc23)cc1	8	13
Cc1cc(Cl)ccc1C(=O)C1CCCN(Cc2ccn[nH]2)C1 (stereo not given)	2&-3	-4&-4
Cn1nnc2c(N3CCNCC3)ncnc21	-3	-2
CC(=O)NBr	7	-4
Cc1nc(CC(=O)N(CCN2CCOCC2)Cc2ccco2)c(C)s1	20	10
O=C(c1cccnc1Oc1ccc(Cl)cc1)N1CCN(CCOC(c2ccccc2)c2ccccc2)CC1	3	7
CN(C)P(=S)(/C=C(/Br)c1ccccc1)N(C)C	0	-4
Cc1ccc(OCC(=O)N2CCN(Cc3ccc(-c4noc(CC(C)C)n4)cc3)CC2)cc1	23	15

Complete entries as entered above. Order of screens: NPYLR7 ag	NPYLR7 ag max-min
Profile of COc1cc(OC)c(C=NNP(=S)(c2ccccc2)c2ccccc2)c(OC)c1 = -2	-4
Profile of Cc1ccc(OCC(=O)N2CCN(Cc3ccc(-c4noc(CC(C)C)n4)cc3)CC2)cc1 = 23	15
Profile of NC(=O)c1ccc(NC(=O)c2nn(Cc3ccc(S(=O)(=O)N4CCOCC4)cc3)c3ccccc23)cc1 = 8	13

More compounds follow:
SMILES	NPYLR7 ag	NPYLR7 ag max-min
COc1ccc(C)cc1NC(=O)c1cccn(Cc2cccc(C)c2)c1=O	11	5
CC12CN3CC(C)(C1=O)C(=O)C(C)(C3)C2=O	0	0
Cc1cc(Cl)cc2sc(N3CCN(C)CC3)nc12	1	1
CC(Cc1ccccc1F)NC(=O)CCNC(=O)OC(C)(C)C (stereo not given)	1	-1
COCCN(CC(=O)Nc1nc(CC(=O)N2CCN(C/C=C/c3ccccc3)CC2)cs1)C(=O)c1ccc(F)cc1	-9	2
c1ccc(CN2CCN(CCCSc3cc4ccccc4[nH]3)CC2)cc1	-9	-11
NC(=O)C1CCN(C2COC3(CCNCC3)C2)CC1 (stereo not given)	-12	-18
COc1ccc2c(c1)c(C(=O)NCCCN1CCCC1=O)nn2Cc1ccc(C(=O)N2CCOCC2)cc1	3	14
CN(C)CC(=O)N1C[C@@H]2C[C@H](C1)c1c(-c3cncnc3)ccc(=O)n1C2	-7	-17
COc1ccc2c(c1OC)C(=O)O[C@@H]2[C@H]1c2cc3c(cc2CCN1C)OCO3	-6	-10
OC(CN1CCOCC1)c1csc2ccccc12 (stereo not given)	4	5
Cc1cc(NC(=O)c2cn(C(C)(C)C)c3ncccc23)ccc1Br	0	-3
N#Cc1cccc(C(=O)N2CCN(CCOC(c3ccccc3)c3ccc(N4CCOCC4)cc3)CC2)c1 (stereo not given)	-1	10
CC(C)(C)c1nn(-c2ccc(F)cc2)c2c1C(c1cccc(Cl)c1)SCC(=O)N2CC(=O)NCc1ccccn1 (stereo not given)	19	12
CC(C)(C)NCC(O)c1cc(Cl)c(N)c(Cl)c1 (stereo not given)	13&16&13	5&8&5
CC(N)C(O)c1ccc(O)c(O)c1 (stereo not given)	54	29
COc1cccc([C@@H]2CCN(Cc3n[nH]c(C)c3Cl)C[C@H]2O)c1	13	8
CNC(=O)[C@@H]1[C@@H](c2ccccc2)CN2CCN(CC3CC3)C[C@H]12	8	15
CCN(CC)CCN(C(=O)Cc1ccccc1)c1nc2ccc(F)cc2s1	-5	-9
C#CCN(C)S(=O)(=O)c1ccc(Cn2nc(C(=O)NOCc3ccccc3)c3ccccc32)cc1	19	23
CC1=CCCC2C1(C)CCC(C)C2(C)CC/C(C)=C/C[n+]1cn(C)c2c(N)ncnc21 (stereo not given)	5	0
Cc1cc(N2CCCN3CCC[C@H]3C2)nc(-c2ccccc2)n1	2	0
COc1cc(OC)c(C2=CCN(CC(=O)Nc3nc(C)cs3)CC2)c(OC)c1	14	13
CCOC(=O)C12C(=O)Oc3ccc4ccccc4c3C1C2(CC)C(=O)c1ccccc1 (stereo not given)	-10	-14
O=C(CN1CC=C(c2ccccc2)CC1)Nc1ccc(F)cc1F	1	-4
CN(N=O)c1cc(O)ccc1O	-8	-1
CCOc1c(Cl)cc(C=C(C#N)C#N)cc1OC	1	-1
CC1=C2[C@H]3OC(=O)[C@@H](C)[C@@H]3CC[C@@]2(C)C=CC1=O	-9&17	-12&14
COC(=O)C1C(=N)Oc2cc(C)[nH]c(=O)c2C12C(=O)N(Cc1ccccc1)c1ccccc12 (stereo not given)	-3	-7
Cc1csc(NC(=O)c2cccn(Cc3ccccc3C)c2=O)n1	13	5
C=Cn1ccnc1P(=S)(c1ccccc1)c1ccccc1	1	1
COc1ccc(OCC(=O)N2CCCN(C)C3(CCN(C)CC3)C2)cc1	5	3
FC(F)(F)c1ccc(CN2CCNCC2)cc1	4&2	4&5
CN1CCN(c2ncnc(N)c2[N+](=O)[O-])CC1	19	7
O=C(N1CCN(c2ccccn2)CC1)C(O)(c1ccccc1)c1ccccc1	1	0
N#CC(C#N)=Cc1ccc(OC(F)F)cc1	0	3
CC(C)c1ccc(OP(N)(=O)Oc2ccccc2F)cc1 (stereo not given)	2	1
N#Cc1cccc(CN2C[C@@H]3C[C@H](C2)c2ccc(/C=C/c4ccc(Cl)cc4)c(=O)n2C3)c1	-7	-17
Nc1ccc(N2CCN(Cc3ccccc3)CC2)cc1	-3	-10
CON(C)S(=O)(=O)c1ccc(Cn2nc(C(=O)NC3CC3)c3ccccc32)cc1	6	19

The final 5 entries of the part above open the next one.
SMILES	NPYLR7 ag	NPYLR7 ag max-min
N#CC(C#N)=Cc1ccc(OC(F)F)cc1	0	3
CC(C)c1ccc(OP(N)(=O)Oc2ccccc2F)cc1 (stereo not given)	2	1
N#Cc1cccc(CN2C[C@@H]3C[C@H](C2)c2ccc(/C=C/c4ccc(Cl)cc4)c(=O)n2C3)c1	-7	-17
Nc1ccc(N2CCN(Cc3ccccc3)CC2)cc1	-3	-10
CON(C)S(=O)(=O)c1ccc(Cn2nc(C(=O)NC3CC3)c3ccccc32)cc1	6	19
Cc1ccccc1Cn1cccc(C(=O)Nc2ccccc2C)c1=O	17	6
Cn1cnn(CNC2(c3ccc(Cl)cc3)CCCCC2)c1=S	5	1
C=CCNC(=O)c1cn(Cc2ccc(C)o2)cc(C(=O)N2CCCCCCC2)c1=O	-1	-8
Cc1cccc(CNC(=O)C(C2CCCC2)N2CCN(C(=O)COc3ccc(Cl)cc3)CC2)c1 (stereo not given)	-4	1
CCc1ccccc1NC(=O)c1cccn(Cc2ccc(Br)cc2)c1=O	14	9
COc1ccc2cc(C(=O)C3CCCN(CCC(N)=O)C3)ccc2c1 (stereo not given)	6	5
C=C(C)C1Cc2c(ccc3c(=O)c4c(oc23)COc2cc(OC)c(OC)cc2-4)O1 (stereo not given)	6&-7	5&-12
NCCc1nc2ccccc2[nH]1	9	13
O=C(Nc1cccnc1)c1cccn(Cc2cccc(F)c2)c1=O	4	-1
C=CCCC(CN1CCCC1)Oc1ccc(C)nn1 (stereo not given)	2	3
C=Cn1ccnc1P(=S)(c1ccccc1)c1nccn1C=C	3	2
COC(=O)C1=C(C)OC(=N)C(C(=O)OC(C)C)C12C(=O)Nc1ccccc12 (stereo not given)	-4	-5
CCCCCCCCCc1ccc(O)cc1	-7	-13
ClCC1CO1 (stereo not given) (tested in a mixture with another compound)	2	-5
Cc1c(C(=O)Nc2ccc(F)cc2Cl)cnn1C(C)(C)C	4	4
COc1cccc(CN(C)C(C)C(=O)c2c(N)n(C)c(=O)n(C)c2=O)c1 (stereo not given)	2	0
Cc1cc([C@@H]2CCCN2C)on1	0	0
COc1ccccc1NC(=O)c1cccc(S(=O)(=O)N2CCCCC2)c1	1	-5
COc1ccc2cc(C(=O)C3CCCN(C4CCC4)C3)ccc2c1 (stereo not given)	-4	-5
CN(C)CCN(C(=O)Cc1ccccc1)c1nc2ccc(S(C)(=O)=O)cc2s1	-13	-19

Exported as a markdown table: entries from further up
| mol | NPYLR7 ag | NPYLR7 ag max-min |
| --- | --- | --- |
| COc1ccccc1C1SCC(=O)N(CC(=O)NCc2ccco2)c2c1c(C(C)(C)C)nn2-c1ccccc1Cl (stereo not given) | 17 | 5 |
| CC(Cc1ccccc1F)NC(=O)CCNC(=O)OC(C)(C)C (stereo not given) | 1 | -1 |
| O=C(CN1CC=C(c2ccccc2)CC1)Nc1ccc(F)cc1F | 1 | -4 |
| CC(N)C(O)c1ccc(O)c(O)c1 (stereo not given) | 54 | 29 |

Back to the main list; the 7 compounds before the break are reprinted first.
SMILES	NPYLR7 ag	NPYLR7 ag max-min
ClCC1CO1 (stereo not given) (tested in a mixture with another compound)	2	-5
Cc1c(C(=O)Nc2ccc(F)cc2Cl)cnn1C(C)(C)C	4	4
COc1cccc(CN(C)C(C)C(=O)c2c(N)n(C)c(=O)n(C)c2=O)c1 (stereo not given)	2	0
Cc1cc([C@@H]2CCCN2C)on1	0	0
COc1ccccc1NC(=O)c1cccc(S(=O)(=O)N2CCCCC2)c1	1	-5
COc1ccc2cc(C(=O)C3CCCN(C4CCC4)C3)ccc2c1 (stereo not given)	-4	-5
CN(C)CCN(C(=O)Cc1ccccc1)c1nc2ccc(S(C)(=O)=O)cc2s1	-13	-19
CN1C[C@@H](c2cc(F)cc(F)c2)[C@@H]2[C@H]1C1CCN2CC1	1	-3
CCCN(CCC)C(=O)Cc1c(-c2ccc(Cl)cc2)nc2c(Cl)cc(Cl)cn12	3	2
CCOc1ccc(F)cc1NC(=O)c1cc(C)n(C(C)(C)C)n1	8	4
O=C(Nc1cccc(Cl)c1)Nc1ccc([N+](=O)[O-])c(C(F)(F)F)c1	0	-4
N#CC1C(=N)Oc2c(c(=O)oc3ccccc23)C1c1ccc([N+](=O)[O-])cc1 (stereo not given)	-2	-6
Cc1cccc(Cn2cccc(C(=O)Nc3ncc([N+](=O)[O-])s3)c2=O)c1	16	8
CCC(O)Cn1cc(C2=CCN(CC3CC3)CC2)cn1 (stereo not given)	4	4
c1ccc(C2(c3ccccc3)CC2C2=NCCN2)cc1 (stereo not given)	5	-47
Cc1ccsc1C(=O)C1CCCN(Cc2cccc3cnccc23)C1 (stereo not given)	2	-1
NC1=NC(=O)C(c2ccccc2)O1 (stereo not given)	-10	-16
O=C(CCn1ccc(=O)[nH]c1=O)N1[C@H]2CCNC[C@@H]1CC2	10	-7
CSC1(CNc2ccc(C#N)c(Cl)c2)CCOCC1	-24	-25
CCCc1c(C(=O)O)cnn1C(C)(C)C	-5	-7
NC(=O)CN1CCCC(C(=O)c2cccc3ccccc23)C1 (stereo not given)	23	16
Cc1ccc2ccccc2c1NC(=O)c1cnn(C(C)(C)C)c1	2	-3
Cc1ccc(C2CC(c3cccnc3)=Nc3nnnn32)cc1 (stereo not given)	0	0
Cc1c(Cl)cccc1S(=O)(=O)N1CCN(CCOC(c2ccccc2)c2ccccc2)CC1	22	24
Cc1ccc(NC(=O)CNC(C)Cc2ccsc2)cc1F (stereo not given)	-4	-5
O=C(O)CCCOc1ccc(Cl)cc1Cl	-14	-17

An excerpt; rates above refer to the full screens.
